# Source: PubChem BioAssay (several laboratories)
# Sa RN4220 lethal: kills Staphylococcus aureus RN4220. 330,000 compounds, 0.33% hits. S. aureus RN4220 growth, OD600, 16 h. AID 1259311. inhibition, % (no concentration beside the values);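 active means z-score of -3 or lower and OD600 up to 0.18 on both plates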;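 further: plate controls were untreated cells for no effect and reference antibiotic for full effect; stock transfer was 100 nL into about 80 µL; one replicate is shown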
# Bead autofluor: counter-screen for toxin protease inhibitors: compound fluorescence; compound autofluorescence counterscreen, microsphere flow cytometry; stronger effect = higher value; AID 624483; 360,000 compounds, 3.1% hits; fluorescence intensity (concentration not given with the values);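 active means at least 3 SD above the mean of all compounds, about 16000 in these data; inconclusive means too few beads counted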;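 further: 100 nL of 1 mM stock went into each well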
# Mtb hypoxia rep: Mtb hypoxia fluorescent reporter inhibition; 300,000 compounds, 0.1% hits; fluorescence inhibition, % (no concentration beside the values); M. tuberculosis hypoxia-regulated fluorescent reporter, fluorescence;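 active means 35 to 45% if threefold the growth effect, above 45% if 1.5-fold the growth effect; inactive means the rest, general growth blockers included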;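 further: wells of about 50 µL received 100 nL stock; 0% = vehicle wells and 100% = reference inhibitor wells; whole bacteria with a GFP reporter of the hypoxia response; strong numbers were not always called active; many hits fall short of the cut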
# PrP 5UTR inh: inhibition of PrP 5' UTR reporter expression; cell-based PrP 5' UTR mRNA reporter, plate reader; inhibition, % (no concentration beside the values); 340,000 compounds, 0.35% hits;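 active means every replicate at 50% or more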;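 further: 0 = median of the neutral control wells; tested in H4 reporter cells; numbers are from one replicate; inactives centre near -14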
# BJeLR lethal: BJeLR cell viability loss; BJeLR (HRASV12) viability, CellTiter-Glo ATP luminescence, 48 h; reference of the scale not given here; inhibition, % (concentration not given with the values); AID 1554; 300,000 compounds, 0.17% hits;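 active means replicate mean above 50%; inconclusive means above 50% but judged a plate artefact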;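 further: 50 nL library stock added to about 25 µL; numbers are from one replicate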
# ugtP null kill: compounds lethal to S. aureus RN4220 ugtP deletion mutant; OD600 growth, 16 h; some inactives read as strong as hits; growth inhibition, % (no concentration beside the values); 330,000 compounds, 0.54% hits;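 active means z-score under -3 and OD600 up to 0.15 on both plates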;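 further: plate controls were untreated wells for no effect and antibiotic for full effect; wells of about 80 µL received 100 nL stock; the first replicate is given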
# Mtb hypoxia rep growth: recorded beside Mtb hypoxia rep, whose call it bears; growth inhibition, %; measured here: M. tuberculosis growth (absorbance);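 0% = vehicle and 100% = reference antibiotic; read after six days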
# Active calls of the source: *; ? = inconclusive; . = no result given.
SMILES,Sa RN4220 lethal,Bead autofluor,Mtb hypoxia rep,Mtb hypoxia rep growth,PrP 5UTR inh,BJeLR lethal,ugtP null kill
COc1ccc(C(=O)COC(=O)c2cccs2)cc1,4.3,.,5,6,-15,.,1
Cc1sc2ncnc(N3CCC(C(=O)NNC(=O)COc4ccccc4Cl)CC3)c2c1C,-0.4,4971,-1,0,-16,2,-4
CNS(=O)(=O)c1cccc(C(=O)OCC(=O)Nc2ccc(Cl)cc2F)c1,5.7,4043,13,10,-15,-7,1
Cc1csc(NC(=O)c2cc(=O)[nH]c3ccccc23)n1,3.0,3817,-3,0,-30,-5,16
CCOc1ccccc1CN1CCCC(CNS(=O)(=O)c2ccc(OC)cc2)C1 (configuration not stated),0.2,4954,-7,-8,-8,10,1
COc1ccc(C2/C(=C(/O)c3ccc(Br)cc3)C(=O)C(=O)N2C)cc1 (configuration not stated),3.8,3992,4,4,-7,-7,4
O=C(Cn1cnc2c(nnn2Cc2ccc(F)cc2)c1=O)Nc1cccc(F)c1,7.4,2672,-2,5,-23,-1,0
O=C(Nc1ccc(N2CCOCC2)nc1)c1ccc(Cl)cc1,-0.4,22714*,-5,4,-10,8,-5
COc1cccc(NC(=O)CN(C)C(=O)c2ccc(N3CCOCC3)c([N+](=O)[O-])c2)c1,5.0,?,-1,-2,0,-2,12
COc1ccc(NCC(=O)N/N=C/c2ccc3c(c2)OCCO3)cc1,.,1819,.,.,-7,6,.
O=S(=O)(c1cccc(Cl)c1)N1CCC(c2nc3ccccc3[nH]2)CC1,1.8,6090,-21,2,4,5,-4
CC(C)(C)c1cc(C(=O)NNC(=O)c2ccc(C(F)(F)F)cc2)no1,1.2,4495,-1,10,-15,0,0
CCOC(=O)C1=NNC2C(=O)N(CC)C(=O)C12 (configuration not stated),-11,3472,4,6,-15,-2,0
O=C(OCc1ccccc1)/C(=C(\O)c1ccccc1Br)c1ccc(-c2ccccc2)cn1,.,3518,.,.,-6,6,.
COc1ccc(C=NNC(=O)c2ccoc2C)cc1CN1CCN(c2ccc(F)cc2)CC1,8.8,.,2,10,.,.,-2
O=C(C1=C[C@H](c2ccc(C(F)(F)F)cc2)C[C@H](OCc2ccc(CO)cc2)O1)N1CCN(Cc2ccc3c(c2)OCO3)CC1,.,3503,.,.,-6,-7,.
COc1ccc(-c2ccc(OC)c(C3C4C=CCC[C@@]4(C)C(=O)N3Cc3ccccc3)c2)cc1OC (some centres not stated),-7.5,.,6,16,.,.,3
Oc1ccc(CN2CCN(Cc3ccccc3)CC2)c2cccnc12,6.5,8742,1,3,-1,-16,2
COc1ccccc1NC(=O)C1=C(C)Nc2nc(-c3cccnc3)nn2C1c1ccccn1 (configuration not stated),-2.5,3419,-11,8,.,.,-15
O=C(Cc1ccccc1)NCC(=O)OCC(=O)c1ccc(OC(=O)c2ccccc2)cc1,0.1,15894,0,-2,-13,-9,2
O=C(c1cc2ccccc2o1)N1CCN(S(=O)(=O)c2cccs2)CC1,1.2,2694,.,.,-16,0,0
S=C(NCCN1CCOCC1)N1CCN(c2cccc(Cl)c2)CC1,-4.8,4226,-3,-3,-3,4,-4
C#CCNC(=O)C1=CC(c2cn(C(C)=O)c3ccccc23)CC(OCCCCO)O1 (configuration not stated),4.7,.,3,9,.,.,-10
O=C(COC(=O)c1ccc([N+](=O)[O-])cc1)Nc1cccnc1Cl,2.3,4163,10,-3,-23,3,5
CCc1[nH]nc2c1C(c1cccc(OC(=O)N3CCOCC3)c1)C(C#N)=C(N)O2 (configuration not stated),4.0,8378,8,6,-24,5,8
# Additional entries:
SMILES,Sa RN4220 lethal,Bead autofluor,Mtb hypoxia rep,Mtb hypoxia rep growth,PrP 5UTR inh,BJeLR lethal,ugtP null kill
O=[N+]([O-])c1ccc(NCc2ccccc2N2CCC(CO)CC2)nc1,3.8,3656,2,8,-4,-5,-4
Cc1ccc(N(CC(=O)NCc2ccc(F)cc2)C(=O)c2snc(C(N)=O)c2N)cc1C,16,3167,13,5,0,2,11
Nn1c(Cc2ccccc2)nc2cc(Cl)ccc2c1=O,0.9,4183,-1,2,-28,11,9
COc1ccc(S(=O)(=O)N(C)c2ccc(C(=O)Nc3ccccc3C(=O)N3CCOCC3)cc2)cc1,3.3,4543,3,0,-10,-13,7
O=C(COC(=O)Cc1c(Cl)cccc1Cl)Nc1ccc2[nH]c(=O)[nH]c2c1,4.6,.,4,-2,-4,2,-1
CCOC(=O)c1oc2ccc(S(=O)(=O)n3nc(-c4ccc(Cl)cc4)cc3N)cc2c1C,-7.1,5704,7,-5,5,8,11
CCC(Sc1nc2cc3c(cc2c(=O)n1Cc1ccco1)OCO3)C(=O)NCCOC (configuration not stated),-1.6,5792,5,9,-10,8,-5
COc1ccc(OC)c(S(=O)(=O)Nc2c(NC3CCCCC3)c3ccccc3oc2=O)c1,-0.5,5388,-3,17,4,4,-5
Cc1c(C(=O)NCCN2CCOCC2)oc2ccccc12,5.5,3720,13,9,-25,-7,1
O=[N+]([O-])c1ccc(Sc2cccc3cccnc23)cc1,0.9,5179,9,12,-17,1,25
CCOc1ccc2[nH]c(=O)c(CN(CCc3ccccc3)C(=O)N3CCOCC3)cc2c1,-0.4,9706,-3,2,-28,1,3
COc1cc(C(C)=NNC(=O)CSc2nnc(C)s2)ccc1O,-5.5,.,18,0,.,.,3
COc1ccc(S(=O)(=O)N2CCN=C2SCc2cccc(F)c2)cc1,3.4,6042,0,7,-14,7,-5
O=C(/C=C/c1ccccc1Cl)N(c1ccccn1)C1CCCCC1,2.7,2651,-5,-2,-18,7,1
O=C(CNS(=O)(=O)c1ccc(Br)cc1)NC1CCCC1,-1.2,6142,3,7,0,6,7
CCc1ccc(NC(=O)CCN2C(=O)c3cccnc3C2=O)cc1,1.6,4301,.,.,-36,-1,6
CCS(=O)(=O)N1Cc2ccccc2CC1C(=O)N(C)CC(=O)Nc1ccc(F)c(F)c1F (configuration not stated),-1.4,?,0,-3,-11,-5,3
COc1ccc(CN2CCN(S(=O)(=O)c3ccc(C)cc3)CC2)cc1OC,3.5,3494,-2,4,2,0,7
Cc1ccsc1C(=O)NNC(=O)CCN1CCN(c2ccccc2)CC1,5.3,4554,0,-2,-15,-4,18
CC1CCN(CCNC(=O)CN(C)S(=O)(=O)c2cccc3nsnc23)CC1,3.0,3218,20,11,-12,4,6
CC1CCCN(c2nc3nonc3nc2Nc2ccccc2F)C1 (configuration not stated),-1.8,4272,-2,1,-21,2,4
Cc1c(Cl)cccc1NC(=O)c1cccnc1,2.1,3088,2,3,-16,-4,0
Clc1cccc(Cl)c1/C=C/c1ccn[nH]1,-2.5,3015,-13,-9,-12,10,-17
Cc1ccc(/C=N/NC(=O)CSc2nnc(-c3ccc(Cl)cc3)n2-c2ccccc2)o1,.,2409,.,.,-35,-32,.
COc1cc(C2c3[nH]c4ccccc4c3C[C@@H]3C(=O)N(Cc4ccco4)CC(=O)N23)cc(OC)c1OC (some centres not stated),-2.1,4390,12,8,-12,6,-13
# (listing goes on)
SMILES,Sa RN4220 lethal,Bead autofluor,Mtb hypoxia rep,Mtb hypoxia rep growth,PrP 5UTR inh,BJeLR lethal,ugtP null kill
CC1CCC(NC(=O)c2ccc(NC(=O)CC3SC(N4CCCC4)=NC3=O)cc2)CC1 (configuration not stated),6.0,5023,5,2,-65,-5,2
COC(=O)c1cc(OC)nc2ccc(Br)cc12,-2.0,5671,2,9,-1,0,13
O=S(=O)(NC1c2cccc3cccc(c23)C1N1CCNCC1)c1ccccc1 (configuration not stated),3.1,7200,4,11,-7,2,-14
CCOC(=O)Oc1ccc2c(c1)C(C)=CC(C)(C)N2C(=O)OCC,-2.6,3858,.,.,-20,11,6
NC(=O)c1ccc(Oc2ccc(Cl)cc2)c([N+](=O)[O-])c1,2.6,4064,6,2,-8,1,3
CCOC(=O)C(=CNc1ccccc1Cl)C(=O)OCC,3.2,3205,4,-6,-15,16,-4
Cc1ccccc1CN(C)c1ccc(S(=O)(=O)N2CCN(C)CC2)cn1,6.4,2938,24,30,-13,.,13
CN(CC(=O)Nc1ccc(N2CCOCC2)cc1)C(=O)c1cc(S(=O)(=O)N(C)C)ccc1Cl,-2.9,?,0,4,-21,-3,0
O=C(NC(=S)NCC1CCCO1)c1cccc([N+](=O)[O-])c1 (configuration not stated),2.7,2178,18,14,-26,0,1
COc1ccccc1NC(=O)CSc1nc2sc(C)c(C)c2c(=O)n1Cc1ccco1,7.7,22274*,8,12,-9,-8,-2
Cc1cc(C=Nn2cnnc2)c(C)n1-c1ccc(Cl)cc1,8.6,.,10,2,.,.,-2
COc1ccc(NC(=O)C2CC(=O)N(C)C(=Nc3ccc4c(c3)OCO4)S2)cc1 (configuration not stated),2.7,7321,3,-3,-16,-2,6
COc1ccccc1N1CCN(C(=O)CCC(=O)N2CCN(c3ccccc3OC)CC2)CC1,-3.0,4057,-7,-11,-11,-2,-1
C[N+](C)(CC#Cc1ccccc1)CC(=O)c1ccccc1,3.2,2012,2,0,-1,-1,1
Cc1ccc(N(C(=O)c2ccc(Br)o2)C2C=CS(=O)(=O)C2)cc1 (configuration not stated),5.4,4095,.,.,-2,10,5
O=C(NN=Cc1ccccn1)c1ccncc1,2.4,.,.,.,.,.,0
COc1ccc2[nH]c(=O)c(CN(Cc3cccs3)C(=S)Nc3ccccc3)cc2c1,16,.,6,8,.,-17,-6
COc1ccccc1N1CCN(Cc2cccc(Br)c2)CC1,3.0,3980,19,10,-3,1,9

# Among those listed so far, nine contain a furan ring, fused or not.
SMILES,Sa RN4220 lethal,Bead autofluor,Mtb hypoxia rep,Mtb hypoxia rep growth,PrP 5UTR inh,BJeLR lethal,ugtP null kill
COc1ccc(C=NNC(=O)c2ccoc2C)cc1CN1CCN(c2ccc(F)cc2)CC1,8.8,.,2,10,.,.,-2
O=C(c1cc2ccccc2o1)N1CCN(S(=O)(=O)c2cccs2)CC1,1.2,2694,.,.,-16,0,0
CCOC(=O)c1oc2ccc(S(=O)(=O)n3nc(-c4ccc(Cl)cc4)cc3N)cc2c1C,-7.1,5704,7,-5,5,8,11
CCC(Sc1nc2cc3c(cc2c(=O)n1Cc1ccco1)OCO3)C(=O)NCCOC (configuration not stated),-1.6,5792,5,9,-10,8,-5
Cc1c(C(=O)NCCN2CCOCC2)oc2ccccc12,5.5,3720,13,9,-25,-7,1
Cc1ccc(/C=N/NC(=O)CSc2nnc(-c3ccc(Cl)cc3)n2-c2ccccc2)o1,.,2409,.,.,-35,-32,.
COc1cc(C2c3[nH]c4ccccc4c3C[C@@H]3C(=O)N(Cc4ccco4)CC(=O)N23)cc(OC)c1OC (some centres not stated),-2.1,4390,12,8,-12,6,-13
COc1ccccc1NC(=O)CSc1nc2sc(C)c(C)c2c(=O)n1Cc1ccco1,7.7,22274*,8,12,-9,-8,-2
Cc1ccc(N(C(=O)c2ccc(Br)o2)C2C=CS(=O)(=O)C2)cc1 (configuration not stated),5.4,4095,.,.,-2,10,5

# Taken from above:
# `Cc1ccc(N(C(=O)c2ccc(Br)o2)C2C=CS(=O)(=O)C2)cc1` (configuration not stated) in PrP 5UTR inh is entered as -2
# `COc1ccccc1N1CCN(Cc2cccc(Br)c2)CC1` in Bead autofluor is entered as 3980
